Bioassay records: PubChem BioAssay, National Center for Advancing Translational Sciences (NCATS)
TSHR agonist – activates the human thyroid stimulating hormone receptor. HEK293-CNG-TSHR cells (CNG channel as cAMP sensor), membrane potential dye, cAMP. Potency, µM (series often up to 57.1 µM), for the others: at the highest dose activation, actives largely listed as activators. hit rate 0.48% among 73,000. AID 926; active = well fitted activation curve of enough size with the parental cells flat; inconclusive = any curve in the parental cells; inactive = parental cells flat and receptor cells flat or falling; note: potency is the fitted concentration of half-maximal effect; % of control where 0% means no effect; weak receptor curves with flat parental cells got no call and are not listed
Target sequence (P16473 whole entry, looked up): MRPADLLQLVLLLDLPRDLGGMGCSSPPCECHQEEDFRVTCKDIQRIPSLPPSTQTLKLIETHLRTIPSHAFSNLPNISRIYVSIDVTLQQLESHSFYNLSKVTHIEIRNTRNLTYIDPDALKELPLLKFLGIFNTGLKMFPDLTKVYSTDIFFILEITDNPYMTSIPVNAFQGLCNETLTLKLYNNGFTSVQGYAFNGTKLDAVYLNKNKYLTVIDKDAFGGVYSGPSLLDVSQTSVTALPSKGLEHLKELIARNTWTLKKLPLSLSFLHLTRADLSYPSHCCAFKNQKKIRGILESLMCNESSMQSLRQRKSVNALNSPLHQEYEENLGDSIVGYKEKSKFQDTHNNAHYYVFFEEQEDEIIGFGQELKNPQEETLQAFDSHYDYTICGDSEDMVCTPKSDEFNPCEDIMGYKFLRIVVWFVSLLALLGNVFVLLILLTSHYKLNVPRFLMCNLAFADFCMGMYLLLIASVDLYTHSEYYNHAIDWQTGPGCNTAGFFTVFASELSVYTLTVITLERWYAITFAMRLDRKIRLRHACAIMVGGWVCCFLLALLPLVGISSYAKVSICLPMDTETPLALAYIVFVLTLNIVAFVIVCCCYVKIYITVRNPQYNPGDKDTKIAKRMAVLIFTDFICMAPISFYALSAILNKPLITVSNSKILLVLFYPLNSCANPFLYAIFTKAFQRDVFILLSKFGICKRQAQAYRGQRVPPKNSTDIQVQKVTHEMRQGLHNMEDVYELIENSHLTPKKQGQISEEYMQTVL
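cAMP rise detected as CNG-channel membrane depolarization by fluorescent dye (emission 590 nm), 30 min after compound, following 60 min dye loading containing 100 uM RO 20-1724 at room temperature. Cells: TSHR/CNG HEK 293, with parental CNG HEK 293 as control.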
A647 fluor – A647 region autofluorescence. 59,000 tested, under 10 active. max dye-equivalent concentration, M. Compound fluorescence, A647 channel (570/671 nm), Tris buffer. AID 592; active means above 1 µM dye equivalent; inconclusive means 0.1 to 1 µM; inactive means 0.1 µM or less;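 note: values scaled relative to a standard on each plate; highest value over a series up to 38 µM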
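Each compound's intrinsic fluorescence at 570 nm excitation and 671 nm emission is measured across its concentration series in 100 mM Tris, pH 8.0, after 15 min at room temperature, and reported relative to an A647 curve.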
A488 fluor – compound autofluorescence in A488 spectral region | compound autofluorescence, A488 spectral region, dye equivalency; active compounds read high | max dye equivalency, M | hit rate 0.1% among 59,000 | AID 591; active = above 10 nM dye equivalent; inconclusive = 1 to 10 nM; inactive = 1 nM or less; about half of its hits are not listed in these tables;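 note: highest value over a series up to 38 µM; compound alone in buffer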
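Compound autofluorescence was read in 100 mM Tris pH 8.0 after 15 min at room temperature, ex 480 nm/em 540 nm. Intensities were converted to A488 dye-equivalent concentration using an on-plate six-point A488 standard curve.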
AID923 – qHTS Assay for Allosteric/Competitive Inhibitors of Caspase-1: Spectroscopic Profiling in AFC Spectral Region; compound fluorescence, AFC spectral region (405/520 nm); almost no hit is shown here; Potency, µM (highest dose often 57.5 µM), without a hit: at the highest dose fluorescence increase, actives largely listed as activators; hit rate 1.1% among 75,000; active = well fitted activation curve with a large enough effect; inconclusive = small, poorly fitted or top-dose-only effect;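 note: potency is the fitted concentration of half-maximal effect; 0% is about no effect; scaled to a free AFC standard on each plate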
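Titrations up to 57 uM read every 20 sec for 3 min (405/520 nm) with 50 nM caspase 1 and 5 uM Ac-WEHD-AFC, pH 7.5 HEPES buffer. Fluorescence-vs-time intercept gave baseline, scaled against on-plate AFC standard.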
Resorufin fluor – compound fluoresces in the resorufin spectral region. Compound fluorescence, resorufin region 547/598 nm, buffer; active compounds read high. max dye-equivalent concentration, M. hit rate 0.04% among 59,000. AID 588; active = above 10 nM dye equivalent; inconclusive = 1 to 10 nM; inactive = 1 nM or less; a few of its hits are not listed in these tables; note: highest value over a series up to 38 µM
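Compounds in 100 mM Tris buffer, pH 8.0, incubated 15 min at room temperature, then read with 547 nm excitation and 598 nm emission filters. Fluorescence was converted to dye-equivalent concentration using an on-plate six-point resorufin standard curve.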
The depositor's hits bear a star; i = inactive; ? = inconclusive; / = no result given; & = joins results of further samples; [ ] = remark or other dose. Only part of the results is shown; count on the stated rates, not on these rows.

Screens by letter – A = TSHR agonist; B = A647 fluor; C = A488 fluor; D = AID923; E = Resorufin fluor
COC(=O)N(c1ccc(OC)cc1)P1(=S)OCCC(C)O1 (stereo not given)
  A: ?	B: 2.6e-08	C: i	D: 1.0%	E: i

CCC(=NCc1ccco1)c1c(O)n(-c2ccc(OC)cc2)c(=O)[nH]c1=O
  A: 1%	B: 1e-09	C: i	D: 0.8%	E: i

CC1=C2C(=O)[C@@H]3[C@@H](CC=C4C[C@@H](O)CC[C@@]43C)[C@H]2CC[C@@]12O[C@H]1C[C@H](C)CN[C@H]1[C@@H]2C
  A: -1%[11.4 µM]	B: 1.8e-09	C: i	D: -1.4%[11.5 µM]	E: i

Nc1ccc(-c2ccc(N)cc2)cc1
  A: -9%	B: /	C: /	D: 4.2%	E: /

COC(=O)CC1(Cc2ccccc2)C(=O)NC(=O)NC1=O
  A: 0%	B: 1e-09	C: i	D: 0.8%	E: i

CSC([N-]/N=C/c1cccc(C)n1)=[S]=[Cu].CS[C@H]([S-])[N-]/N=C/c1cccc(C)n1
  A: -7%[11.4 µM]	B: 2.1e-08	C: i	D: -0.8%[11.5 µM]	E: i

NC12CN3CN(CN(C3)C1)C2 (tested in a mixture with another compound)
  A: 5%	B: 2.5e-08	C: i	D: 0.0%	E: i

Cc1ccc(S(=O)(=O)Cc2ccc(C(=O)N3CCC4(CC3)OCCO4)o2)cc1
  A: 7%	B: 1e-09	C: i	D: 0.9%	E: i

CC(=Nc1ccc2c(c1)CCC2)c1c(O)n(C2CCCCC2)c(=O)[nH]c1=O
  A: 11%[11.4 µM]	B: 2.6e-08	C: i	D: 0.8%	E: i

CCNCC
  A: 4%	B: /	C: /	D: 4.7%	E: /

CCN(CC)c1ccc(N=Cc2c(O)n(-c3cc(OC)ccc3OC)c(=O)[nH]c2=O)cc1
  A: /	B: 2.2e-08	C: i	D: /	E: i

CN(C)c1cc(N)c2c(n1)CCC2 (tested in a mixture with another compound)
  A: 6%	B: 8.5e-09	C: i	D: 0.8%	E: i

O=C(O)[C@@H](Br)[C@H](Br)C(=O)O
  A: 2%[11.4 µM]	B: 5.8e-08	C: i	D: 6.9%[11.5 µM]	E: i

CCCCNC(=O)Nc1ccc(C(O)(C(=O)OCC)C(F)(F)F)cc1 (stereo not given)
  A: /	B: 1e-09	C: i	D: /	E: i

C[N+]1(C)CCO[C@](O)(c2ccc(-c3ccc([C@]4(O)C[N+](C)(C)CCO4)cc3)cc2)C1
  A: -12%[25.6 µM]	B: 8.2e-09	C: i	D: 1.6%[25.7 µM]	E: i

CC(=O)N1CCN(c2ccc(N=Cc3c(O)n(-c4ccc(Cl)cc4)c(=O)[nH]c3=O)cc2)CC1
  A: -20%	B: 3.6e-09	C: i	D: 4.3%	E: i

Cn1c(=O)c2nncnc2n(C)c1=O
  A: 18%	B: 6.9e-09	C: i	D: 0.3%	E: i

O=C1C2CCN(CC2)[C@@H]1Cc1ccc2ccccc2c1O
  A: /	B: 1e-09	C: i	D: /	E: i

CCCN[C@@H]1CCc2c(OC)cccc2[C@@H]1C
  A: 27%	B: /	C: /	D: 5.3%	E: /

CCN(CC)CCO[C@H]1CC[C@@]2(C)C(=CC[C@@H]3[C@H]2CC[C@]2(C)C(=O)CC[C@H]32)C1
  A: 12%	B: /	C: /	D: -0.3%	E: /

CC(=O)Nc1ccc(OC(=O)N(C)C)cc1
  A: 3%	B: 1e-09	C: i	D: 2.2%	E: i

CC1CN=C(Nc2cccc3ccccc23)S1 (stereo not given)
  A: 12%	B: 3e-08	C: i	D: 3.8%	E: i

N#CCc1ccccc1
  A: 0%	B: /	C: /	D: 2.7%	E: /

CCCCCCOc1ccc(CN2CCN(C)CC2)cc1
  A: 22%	B: /	C: /	D: 1.6%	E: /

CC(C)(Cl)[N+](=O)[O-]
  A: -9%	B: /	C: /	D: 1.0%	E: /

CCCN1CCC2(CC1)NC(CO)(CO)CO2
  A: -2%	B: 3.1e-08	C: i	D: 2.2%	E: i

O[C@H]1C2CCC1C(N1CCCCC1)CC2 (stereo not given in full)
  A: -1%	B: 4.1e-08	C: i	D: 0.1%	E: i

CCN1CCN(Cc2cc(Br)cc(OC)c2O)CC1
  A: 6%	B: 6.7e-08	C: i	D: -2.0%	E: i

NC[C@@H](O)CSP(=O)(O)O
  A: 3%[11.4 µM]	B: 1.4e-09	C: i	D: 4.0%[11.5 µM]	E: i

CN1CCN(Cc2ccccc2C(F)(F)F)CC1
  A: 4%[11.4 µM]	B: /	C: /	D: 0.3%	E: /

CCCCn1c(O)c(C=NC2CC3CCC2(C)C3(C)C)c(=O)[nH]c1=O (stereo not given)
  A: 28%	B: 2.3e-08	C: i	D: 7.1%	E: i

ClC1=CCC2CN(CCN3CCCCC3)CC2C1 (stereo not given)
  A: ?	B: 3.5e-08	C: i	D: 0.7%	E: i

CCN(N=O)C(N)=O
  A: -9%	B: /	C: /	D: 3.7%	E: /

C#CCOC(=O)C1=CCCN(C)C1
  A: 9%&22%	B: 1.7e-08	C: i	D: 1.0%&-1.9%	E: i

Cc1noc(C)c1C(=O)N1CCC2(CCCN(CC(C)C)C2)CC1
  A: ?	B: 1.1e-08	C: i	D: 1.7%	E: i

CCCCn1c(O)c(C(C)=NC(C)c2ccccc2)c(=O)[nH]c1=O (stereo not given)
  A: 30%	B: 6.3e-09	C: i	D: -0.1%	E: i

COC1=CC(=O)OC(CCc2ccc3c(c2)OCO3)C1 (stereo not given)
  A: 15%	B: /	C: /	D: -1.3%	E: /

NC[C@H](O)c1ccc(O)cc1
  A: ?	B: 4.6e-08&1e-09	C: i	D: 0.5%[25.7 µM]	E: i

NNc1c(C(N)=O)c2c(N)ncnc2n1[C@@H]1O[C@H](CO)[C@@H](O)[C@@H]1O
  A: 2%[11.4 µM]	B: 1e-09	C: i	D: /	E: i

NC(=O)CN1C2CCC1CC(NC(=O)C1CC1)C2 (stereo not given)
  A: 0%	B: 2.9e-08	C: i	D: 1.8%	E: i

COC(=O)CC1NC2CCCCC2NC1=O (stereo not given)
  A: -1%	B: 2.5e-09	C: i	D: 0.4%	E: i

O=C1C2CCCN2C(c2cccs2)N1c1ccc(Cl)cc1 (stereo not given)
  A: ?	B: 1e-09	C: i	D: 1.1%	E: i

O=P(O)(O)c1ccccc1 (tested in a mixture with another compound)
  A: -1%[11.4 µM]	B: 4.2e-08	C: i	D: -2.0%[11.5 µM]	E: i

Cc1cc(-c2ccc(N)c(C)c2)ccc1N
  A: ?	B: /	C: /	D: 1.6%	E: /

c1ccc2c3c([nH]c2c1)CNCC3
  A: /	B: 1.6e-09	C: i	D: /	E: i

COC(=O)C1C2c3ccccc3OC1(C)N=c1s/c(=C/c3cn(C)nc3C)c(=O)n12 (stereo not given)
  A: 3%	B: 4.4e-09	C: i	D: -0.3%	E: i

COc1ccc(C[C@@H]2NC[C@H](O)[C@@H]2OC(C)=O)cc1
  A: -9%[25.6 µM]	B: 9.2e-09	C: i	D: 1.6%[25.7 µM]	E: i

CCC(=NCc1ccc2c(c1)OCO2)c1c(O)n(C)c(=O)n(C)c1=O
  A: ?	B: 9.5e-09	C: i	D: 1.5%	E: i

CN(C)c1ccc(/C=C2\CCCN=C2c2cccnc2)cc1
  A: -18%	B: /	C: /	D: -1.2%	E: /

In the list so far, these have an NH in an aromatic ring.
Screens by letter – A = TSHR agonist; B = A647 fluor; C = A488 fluor; D = AID923; E = Resorufin fluor
CCC(=NCc1ccco1)c1c(O)n(-c2ccc(OC)cc2)c(=O)[nH]c1=O
  A: 1%	B: 1e-09	C: i	D: 0.8%	E: i

CC(=Nc1ccc2c(c1)CCC2)c1c(O)n(C2CCCCC2)c(=O)[nH]c1=O
  A: 11%[11.4 µM]	B: 2.6e-08	C: i	D: 0.8%	E: i

CCN(CC)c1ccc(N=Cc2c(O)n(-c3cc(OC)ccc3OC)c(=O)[nH]c2=O)cc1
  A: /	B: 2.2e-08	C: i	D: /	E: i

CC(=O)N1CCN(c2ccc(N=Cc3c(O)n(-c4ccc(Cl)cc4)c(=O)[nH]c3=O)cc2)CC1
  A: -20%	B: 3.6e-09	C: i	D: 4.3%	E: i

CCCCn1c(O)c(C=NC2CC3CCC2(C)C3(C)C)c(=O)[nH]c1=O (stereo not given)
  A: 28%	B: 2.3e-08	C: i	D: 7.1%	E: i

CCCCn1c(O)c(C(C)=NC(C)c2ccccc2)c(=O)[nH]c1=O (stereo not given)
  A: 30%	B: 6.3e-09	C: i	D: -0.1%	E: i

c1ccc2c3c([nH]c2c1)CNCC3
  A: /	B: 1.6e-09	C: i	D: /	E: i

3 entries already listed, ordered by number of heavy atoms, ascending:
Screens by letter – A = TSHR agonist; B = A647 fluor; C = A488 fluor; D = AID923; E = Resorufin fluor
O=P(O)(O)c1ccccc1 (tested in a mixture with another compound)
  A: -1%[11.4 µM]	B: 4.2e-08	C: i	D: -2.0%[11.5 µM]	E: i

c1ccc2c3c([nH]c2c1)CNCC3
  A: /	B: 1.6e-09	C: i	D: /	E: i

CCC(=NCc1ccc2c(c1)OCO2)c1c(O)n(C)c(=O)n(C)c1=O
  A: ?	B: 9.5e-09	C: i	D: 1.5%	E: i
